# Bioassay records (PubChem BioAssay)
# PINK1 expr mod – changes PINK1 expression | 410,000 compounds, 0.2% hits | AID 624263 | Potency, µM (titrated, usually from 76.6 µM), for the others: at the top dose activation (PINK1 increase), actives largely listed as activators | PINK1 immunofluorescence, high-content cytometry, 24 h; active = well fitted activation curve with a large enough effect; inconclusive = small, poorly fitted or top-dose-only effect; inactive = flat fitted curve, though single readings scatter; cell line not stated here;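 further: potency means the concentration at half of the fitted maximal effect; % of control where 0% means no effect; nearly all actives have a fitted effect of over 65% in size; a mitochondrial uncoupler was the plate control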
#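 A stable cell line was treated with compounds at 5 concentrations for 24 hours, with CCCP as control. PINK1 levels and mitochondrial localization were measured by immunofluorescence with mitochondrial, cell and nuclear markers after fixation, read by laser-scanning cytometry.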
# Menin MLL FP FL – menin-MLL binding inhibition, fluorescein peptide; 290,000 tested, under 10 active; FP activity change, % at 61.4 µM; Fluorescence polarization, fluorescein-MLL peptide displacement from menin; inconclusive = falling polarisation curve, or a change in total fluorescence; inactive = total fluorescence flat and polarisation flat or rising; no compound was filed as active; the % refers to the polarisation; negative = inhibition;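 further: % of control where 0% means no effect; inhibitors lower the polarisation; unlabelled MLL peptide was the positive control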
# D2 ag – activates the human D2 dopamine receptor | P14416 | DiscoveRx PathHunter D2 beta-arrestin, luminescence, 90 min; 100% = 57 uM dopamine signal | activation, % (test concentration not listed) | 360,000 compounds, 0.084% hits; in the data active = activation above about 40%; inconclusive = about 15% to 40%; inactive = below about 15%; further: compound concentration not given in the record; the text of the record calls up to 30% inactive
# Target sequence (P14416 whole entry, looked up): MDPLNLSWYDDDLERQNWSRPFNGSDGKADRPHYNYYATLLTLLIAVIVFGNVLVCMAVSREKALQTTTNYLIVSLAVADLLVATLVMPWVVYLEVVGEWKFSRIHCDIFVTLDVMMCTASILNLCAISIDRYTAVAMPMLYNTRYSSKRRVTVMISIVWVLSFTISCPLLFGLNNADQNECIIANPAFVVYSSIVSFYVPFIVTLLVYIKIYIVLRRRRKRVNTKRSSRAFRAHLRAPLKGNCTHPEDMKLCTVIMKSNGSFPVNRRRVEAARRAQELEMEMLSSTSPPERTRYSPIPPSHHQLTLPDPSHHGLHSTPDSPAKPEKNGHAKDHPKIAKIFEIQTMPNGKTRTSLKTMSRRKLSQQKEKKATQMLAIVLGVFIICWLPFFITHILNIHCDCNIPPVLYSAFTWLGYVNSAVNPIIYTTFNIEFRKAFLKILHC
#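 DiscoveRx PathHunter D2 beta-arrestin cells (2,100/well) attached overnight, then compound-stimulated 90 min at 37 C in HBSS/10 mM HEPES/0.1% Tween-20 buffer; beta-galactosidase complementation read by luminescence after 1 h at ambient temperature. Dopamine 57 uM final (EC100) as control.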
# Sfp PPTase inh – Sfp phosphopantetheinyl transferase inhibition. Q9F4F7. Biochemical Sfp PPTase activity, qHTS. Potency, µM, inactives show max response, negative = inhibition, usual class: inhibitors. 310,000 compounds, 3.5% hits; active means well fitted inhibition curve with a large enough effect; inconclusive means small, poorly fitted or top-dose-only effect, or another doubt; inactive means no such curve, though single readings can be large or run the other way;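 further: the enzyme is Sfp with the accession as filed and its product quenches rhodamine fluorescence; potency means the concentration at half of the fitted maximal effect; 0% = enzyme reaction without inhibitor and -100% = no enzyme wells; top concentration of the series not given in the record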
#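 Step 1, compound plus 15 nM Sfp-PPTase, 15 min, room temperature. Step 2, add rhodamine-CoA (5 uM) and BHQ-2-YbbR (12.5 uM). Step 3, read 525/598 nm fluorescence at 0 and 30 min.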
# gsp ag – activates gsp, the McCune-Albright syndrome mutation. gsp mutant cells, cAMP HTRF, 30 min; control for the full effect not named in the record. Potency, µM (titrated, usually from 76.9 µM), inactives show at the highest dose activation (cAMP increase), most hits filed as activators. 340,000 compounds, 0.13% hits. AID 624287; active = well fitted activation curve with a large enough effect; inconclusive = small, poorly fitted or top-dose-only effect, or another doubt; inactive = no such curve, though single readings can be large or run the other way; cell line not stated here;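 further: phosphodiesterase inhibitor Ro 20-1724 added with compounds to block cAMP breakdown; potency means the concentration at half of the fitted maximal effect; nearly all actives have a fitted effect of over 60% in size; about a fifth of the inactives were tested at one dose only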
#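 Cells in DMEM/10% FBS with G418 were pretreated with compounds in DMSO plus […] (300 uM stock) for 30 min at 37C. cAMP was measured by HTRF (cAMP-d2 plus anti-cAMP antibody-K) after 30 min at room temperature.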
# ClpP mod – qHTS Assay for Activators of ClpP. purified B. subtilis ClpP, FRET peptide cleavage, 20 min. ATP-dependent Clp protease proteolytic subunit (Bacillus subtilis (strain 168)), P80244. Potency, µM (top dose mostly 57.5 µM), without a hit: top-dose activity change, negative = active. 340,000 compounds, 1.9% hits; active = well fitted falling curve with a large enough effect; inconclusive = small, poorly fitted or top-dose-only effect; inactive = no such curve, though single readings can be large or run the other way; further: potency means the concentration at half of the fitted maximal effect; the source files actives as falling curves though it sought activators and does not explain the sign; nearly all actives have a fitted effect of over 65% in size; many hits overshoot -100%
# Target sequence (P80244 whole entry, looked up): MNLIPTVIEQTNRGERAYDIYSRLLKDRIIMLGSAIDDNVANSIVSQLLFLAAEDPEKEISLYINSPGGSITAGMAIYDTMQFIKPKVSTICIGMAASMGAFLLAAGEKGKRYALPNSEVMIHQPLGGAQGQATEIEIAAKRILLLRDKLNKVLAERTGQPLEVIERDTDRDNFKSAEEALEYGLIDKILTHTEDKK
#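 ClpP 10 microg/mL final, pH 8 Tris/KCl buffer with BSA, glycerol, Tween-20; compound pinned in; FRET-FV substrate; RT 20 min; Ex320/Em430; ΔFRET vs ADEP 5.8 microM, DMSO, no enzyme.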
# gsp antagonist – gsp mutant antagonism. 340,000 compounds, 0.4% hits. gsp-mutant cells, cAMP HTRF, 30 min; control for the full effect not named in the record. Potency, µM (highest dose often 76.9 µM), inactives show at the top dose activity change, negative = inhibition, most hits filed as inhibitors; active = falling curve of any shape with a large fitted effect; inconclusive = falling curve, mostly with a smaller effect; inactive = flat or rising curve; cell line not stated here;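 further: intracellular cAMP measured with PDE inhibitor Ro 20-1724 present during compound exposure; potency means the concentration at half of the fitted maximal effect; on the % scale 0 is the no-effect control and ±100 the full control effect; nearly all actives have a fitted effect of over 65% in size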
#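 Cells, 2000/well, grown 16–24 h in DMEM 10% FBS with 0.5 mg/ml G418, then compounds plus […] (300 uM addition stock), 30 min at 37C. cAMP read by HTRF (cAMP-d2 and anti-cAMP antibody-K in lysis buffer) after 30 min RT.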
# * hit, by the source's call; u = inconclusive; x = not tested or not shown; & = joins results of further samples; [ ] = another dose, or the depositor's remark.
# Each structure is followed by: D2 ag | Sfp PPTase inh | ClpP mod | PINK1 expr mod | gsp ag | Menin MLL FP FL | gsp antagonist
O=C(Cn1c(Cc2ccccc2)nc2ccccc21)NCc1ccc2c(c1)OCO2
 : 0.9 | 9% | -1.6% | 1.5% | -1%[15.4 µM] | 8.0 | 1%
CC1CN(c2nc3c(c(=O)n(C)c(=O)n3C)n2Cc2c(F)cccc2Cl)CC(C)O1 (stereo not drawn)
 : -2.2 | 2% | -2.2% | -0.4% | -19% | 3.2 | -21%
O=C(COc1ccc(Cl)cc1)NCCN1CCCCC1
 : -4.3 | 0% | 0.2% | 2.1% | -1%[15.4 µM] | -1.5 | 5%
C=CC[C@@H](Cc1ccc(F)cc1)C(=O)OC[C@@H]1CCCN1C(=O)[C@@H](CC=C)CC(=O)N[C@H](CO)Cc1ccccc1
 : 2.9 | x | 0.1% | u | x | x | -16%
COC(=O)[C@@H](NC(=O)N1CCC(C)CC1)C(C)C
 : -5.4 | 2% | x | -0.6% | 1% | 0.3 | 13%
Cc1cc(NC(=O)CSCC(=O)Nc2ccccc2N2CCCCC2)no1
 : -6.7 | x | 0.8% | 1.0% | 8% | x | -8%
OCC[C@@H]1C[C@H](O)[C@@H](O)[C@]2(OCc3ccccc32)O1
 : -7.5 | 8% | 0.2% | 0.5% | 16% | -3.0 | 10%
O=C(CN1CCCC1c1ccc2c(c1)OCCO2)NC(=O)Nc1ccccc1 (stereo not drawn)
 : 0.0 | x | -1.5% | 6.5% | 2% | x | -17%
COc1ccc2cc(C(=O)NCc3ccccc3CN3CCCC3)ccc2c1
 : -0.3 | x | 3.7% | 9.0% | 15% | x | -10%
CCNC1(C#N)CCN(Cc2ccccc2)CC1
 : -1.9 | x | 0.3% | 0.5% | -5%[15.4 µM] | x | 7%
O=C(COC(=O)c1ccc(O)cc1)Nc1cccc(S(=O)(=O)NC2=NCCCCC2)c1
 : 2.6 | 8% | x | 2.9% | -21%[15.4 µM] | 3.5 | 1%
O=C(CSc1ccc([N+](=O)[O-])cn1)Nc1ccc(N2CCOCC2)cc1
 : 11 | -4% | x | -2.1% | 1%[15.4 µM] | -4.6 | 9%
COC(=O)c1ccc(N2CC3CNC(=O)C2(C(=O)OC)N3C)cc1 (stereo not drawn)
 : -2.3&-2.2 | x | -4.6%&-4.5% | 0.3%&-0.2% | 20%&-11% | x | -2%&7%
Cc1cccc2sc(NC(=O)c3ccc(Cl)s3)nc12
 : -5.6 | 15% | 4.5% | 5.7% | u | 3.2 | -5%
Cc1ccc(OCC(=O)Nc2ccc(S(=O)(=O)Nc3ccccn3)cc2)c(C)c1
 : -3.7 | 3% | u | 0.5% | -7% | -1.5 | -7%
Cc1nn(CCc2n[nH]c(=S)n2C)c(C)c1Br
 : -0.7 | 11% | -2.5% | -2.7%[38.3 µM] | 17% | 5.0 | -5%
CCN(CC)S(=O)(=O)c1cccc(-c2n[nH]c(=S)n2Cc2ccccc2)c1
 : u | -23% | -0.1% | -0.7% | u | -5.7 | -33%
N=c1c(C(=O)NC2CCCCC2)cc2c(=O)n3ccccc3nc2n1CC1CCCO1 (stereo not drawn)
 : -1.8 | 25% | x | 0.1% | 28%[15.4 µM] | x | 7%
O=C(Nc1nc2ccccc2[nH]1)c1cccc(Cl)c1
 : 2.0 | 4% | -5.0% | 3.6% | -13% | -1.3 | -2%
COc1cccc(CN(C)Cc2cc(=O)oc3cc(O)c(Cl)cc23)c1
 : -3.4 | 79µM* | 4.5% | 0.3% | 6% | -9.7 | -10%
C=CCn1c(COc2ccccc2F)nnc1SCC(=O)Nc1cc2oc3ccccc3c2cc1OC
 : -1.2 | 13% | -3.2% | 2.9% | -26% | 0.6 | -17%
N#Cc1cc2c(ccc3ccccc32)oc1=O
 : -4.7 | -3% | x | 7.8% | 4%[15.4 µM] | 6.8 | -10%
COc1cc(Cl)ccc1OCc1cc(C(=O)N(C)CC2CCCCO2)no1 (stereo not drawn)
 : -5.1 | 9% | 0.9% | 1.3% | -59%[inhibitor] | 2.1 | -7%
CCc1ccc(NC(=O)N(CCCN2CCOCC2)C(C)c2cc3cccc(OC)c3o2)cc1 (stereo not drawn)
 : -3.2 | 3% | -0.4% | 0.3% | 10% | 0.1 | -9%
Cc1ccc(S(=O)(=O)NCC(=O)OCC(=O)Nc2ccc(C)c(S(=O)(=O)N3CCOCC3)c2)cc1
 : 8.4 | x | -0.9% | 3.5% | -36%[inhibitor] | x | -9%
COC(=O)c1ccc2[nH]cc(CCO)c2c1
 : -2.8 | 15% | -7.5% | -0.8% | 0% | -4.1 | 10%
O=C(CSc1nnc(-c2ccco2)o1)NC(=O)Cc1ccccc1
 : -2.0 | -23% | -1.1% | 1.2% | 19% | 9.2 | -1%
COc1ccc(NC(=O)N2CCCC(c3nc(-c4ccc(OC)cc4)no3)C2)cc1 (stereo not drawn)
 : -4.0 | 6% | x | 0.4% | 16% | -5.4 | -16%
Cc1ccc(C(=O)NC2CCCCCC2)o1
 : -2.1 | 4% | -2.2% | -1.7% | u | -8.8 | 1%
Cc1ccc(CNC(=O)CNC(=S)N(Cc2ccccc2)Cc2ccccc2F)cc1
 : 1.5 | 24% | x | u | 10%[15.4 µM] | -5.6 | -22%
Cc1cc(C)c(C(=O)Cn2cnc3cc([N+](=O)[O-])ccc3c2=O)cc1C
 : 13 | 12% | -12% | 0.2% | 3%[15.4 µM] | 0.9 | -6%
COc1cc(OC)c(NC(=O)c2cccc(F)c2)cc1Cl
 : -5.1 | 12% | 0.4% | 0.3% | 10%[15.4 µM] | 2.1 | -26%
O=C(/C=C1\C(=O)Nc2ccccc21)/C=C1\C(=O)Nc2ccccc21
 : 6.5 | 1.4µM* | -6.1% | 8.6% | u | 9.3 | -17%
Cc1ccc2[nH]c(=O)c(C3C(C#N)=C(N)Oc4c3ccc3cccnc43)cc2c1 (stereo not drawn)
 : -4.1 | -2% | -2.5% | 7.9% | -12% | 0.5 | 19%
CS(=O)(=O)N(CC(=O)O)c1ccc(Oc2ccccc2)cc1
 : -0.8 | 11% | 0.0% | 2.8%[38.3 µM] | 5% | 3.1 | -12%
O=C(Nc1ccccc1Cl)c1ccc(=O)[nH]n1
 : 1.9 | 9% | -0.2% | -2.2% | 29% | 0.9 | 6%
CC(=O)Nc1ccc(OCC(O)Cn2c(C)nc3ccccc32)cc1 (stereo not drawn)
 : 0.4 | 3% | -3.1% | 1.5% | 6% | 1.5 | 2%
Cc1ccc(S(=O)(=O)N2CCCCC2)cc1NC(=O)COC(=O)c1ccc(=O)[nH]c1
 : -2.0 | x | 1.4% | 0.8% | -10% | x | 6%
CC(C)C(NC(=O)c1c(F)cccc1F)C(=O)NCc1ccncc1 (stereo not drawn)
 : -4.7 | x | 0.7% | 2.6% | 27% | x | 8%
CCN(CC(=O)Nc1ccc2c(c1)CCC2)Cc1nc2ccccc2c(=O)[nH]1
 : -1.8 | u | -2.5% | 1.8% | -34%[inhibitor] | 2.0 | 1%
COc1ccc(NC(=O)CCn2c(=S)[nH]c3ccccc3c2=O)cc1OC
 : -4.6 | -7% | -0.3% | 2.5% | u | x | 21%
Cc1nc(NCC2CCCO2)nc2c1C(=O)CC(C)(C)C2 (stereo not drawn)
 : -0.7 | -10% | -3.6% | 3.4%[38.3 µM] | 11% | 0.2 | 5%
O=C(c1ccccc1)c1cccc[n+]1[O-]
 : -2.6 | 10% | -1.6% | 0.0% | -5%[15.4 µM] | -1.4 | 7%
Cc1ccc(SCC(=O)Nc2cccc(S(=O)(=O)N3CCOCC3)c2)cc1C
 : -1.8 | x | -0.5% | 3.0% | 21% | x | 17%
CCC1=NN(C(=O)Cc2ccc(OC)cc2)C(O)(C(F)(F)F)C1 (stereo not drawn)
 : -2.2 | 5% | -0.5% | -1.5%[38.3 µM] | -73%[inhibitor] | -1.3 | 7%
COc1ccc(C)cc1S(=O)(=O)Nc1ccc2c(c1)OCCO2
 : 4.8 | 11% | -1.3% | 1.6% | u | 4.8 | -20%
CCN(CC)S(=O)(=O)c1ccc(Cl)c(NC(=O)COC(=O)C2CCCCC2)c1
 : -2.6 | x | 2.4% | 0.5% | 18% | x | 8%
CC1CC(C)CN(S(=O)(=O)c2ccc3c(c2)CCN3C(=O)CCC(=O)O)C1 (stereo not drawn)
 : 9.3 | 5% | -2.1% | -1.4% | -51%[inhibitor] | x | -2%
COc1ccc(CNc2nc(SCc3cc(=O)n4cc(Cl)ccc4n3)nc3ccccc23)cc1
 : -0.8 | 6% | -17% | -0.3% | 8% | 5.2 | -18%

# Full records as entered above. Order of values: D2 ag | Sfp PPTase inh | ClpP mod | PINK1 expr mod | gsp ag | Menin MLL FP FL | gsp antagonist
# `CCN(CC)S(=O)(=O)c1ccc(Cl)c(NC(=O)COC(=O)C2CCCCC2)c1` is listed with -2.6 | x | 2.4% | 0.5% | 18% | x | 8%
# `O=C(c1ccccc1)c1cccc[n+]1[O-]` is listed with -2.6 | 10% | -1.6% | 0.0% | -5%[15.4 µM] | -1.4 | 7%
# `COc1ccc(C)cc1S(=O)(=O)Nc1ccc2c(c1)OCCO2` is listed with 4.8 | 11% | -1.3% | 1.6% | u | 4.8 | -20%
# `CCC1=NN(C(=O)Cc2ccc(OC)cc2)C(O)(C(F)(F)F)C1` (stereo not drawn) is listed with -2.2 | 5% | -0.5% | -1.5%[38.3 µM] | -73%[inhibitor] | -1.3 | 7%
# `COc1ccc(CNc2nc(SCc3cc(=O)n4cc(Cl)ccc4n3)nc3ccccc23)cc1` is listed with -0.8 | 6% | -17% | -0.3% | 8% | 5.2 | -18%

# Outcome played no part in choosing rows. Share with any hit: about 5.1%.
